Screening results (PubChem)
Mtb growth: M. tuberculosis H37Rv growth inhibitors, H37Rv strain (AID 1626); 220,000 tested, 0.95% active; M. tuberculosis H37Rv growth inhibition; higher % means a stronger effect; inhibition, % at 10 µM, or IC50 in µM where a hit was titrated;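 active = confirmed in a dose series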;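 note: bacteria incubated seven days before Alamar blue readout; 0% = bacteria only wells and 100% = bacteria with antibiotic wells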
Arbovirus anti: antivirals against arbovirus infection, primary screen, cell-based, full library, 10K replicate subset | arbovirus infection cell-based antiviral screen | inhibition, % at 10 µM | 200,000 tested, 0.37% active;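 active = inhibition from about 30%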;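 note: bluetongue infection of BSR cells; cell survival read as ATP light after 72 h; 0% = infected wells without compound and 100% = uninfected wells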
RecA splice inh: Mtb RecA intein splicing inhibitors, primary screen, biochemical, fluorescence, HTS. AID 2221, 2009. Protein RecA (Mycobacterium tuberculosis (strain ATCC 25618 / H37Rv)), P9WHJ3. 290,000 tested, 0.75% active. inhibition, %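 (about 9 µM by stock and volumes)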. cell-free RecA intein splicing; in the data active = inhibition above about 30%;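 note: 0% = vehicle wells and 100% = reference inhibitor control wells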
Target sequence (P9WHJ3 whole entry, looked up, canonical isoform): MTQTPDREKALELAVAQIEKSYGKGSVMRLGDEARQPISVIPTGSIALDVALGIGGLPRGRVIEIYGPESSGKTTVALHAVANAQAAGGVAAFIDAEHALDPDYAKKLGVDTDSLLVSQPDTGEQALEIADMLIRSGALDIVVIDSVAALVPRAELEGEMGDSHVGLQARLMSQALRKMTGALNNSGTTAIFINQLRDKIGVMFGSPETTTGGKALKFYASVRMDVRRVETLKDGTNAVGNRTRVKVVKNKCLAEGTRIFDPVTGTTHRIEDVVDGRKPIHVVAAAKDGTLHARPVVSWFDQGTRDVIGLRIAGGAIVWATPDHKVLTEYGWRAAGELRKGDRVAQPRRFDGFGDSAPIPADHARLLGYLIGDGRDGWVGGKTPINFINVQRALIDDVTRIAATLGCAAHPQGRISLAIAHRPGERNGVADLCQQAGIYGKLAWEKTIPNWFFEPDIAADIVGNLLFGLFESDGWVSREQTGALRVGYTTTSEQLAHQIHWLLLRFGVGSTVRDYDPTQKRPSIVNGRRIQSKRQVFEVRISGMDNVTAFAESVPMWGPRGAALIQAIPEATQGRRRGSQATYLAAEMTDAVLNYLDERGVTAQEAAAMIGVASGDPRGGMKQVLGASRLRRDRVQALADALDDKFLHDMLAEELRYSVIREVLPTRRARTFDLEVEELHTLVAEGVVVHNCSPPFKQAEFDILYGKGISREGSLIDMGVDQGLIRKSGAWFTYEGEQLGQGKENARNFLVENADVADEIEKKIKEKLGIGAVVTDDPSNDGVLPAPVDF
Mtb bLac sens: beta-lactam sensitization of Mtb H37Rv, H37Rv | inhibition, % at 25 µM | M. tuberculosis H37Rv growth with meropenem, percent inhibition; hits of this screen are not shown here | 330,000 tested, 0.27% active;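 active = about 74% or more and at least 40 points above the plate without the antibiotic, then above 30% in a dose series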;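 note: growth measured after seven days incubation then overnight dye step; 0% = bacteria only wells and 100% = bacteria with antibiotic; twin plates without the antibiotic show which effects depend on it; some results filed as inactive read as strong as hits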
YopH PTP inh: YopH tyrosine phosphatase inhibitors, primary screen, biochemical, fluorescence Ex485/Em525 | 140,000 tested, 0.16% active | YopH tyrosine phosphatase [Yersinia enterocolitica] | inhibition, %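 (about 10 µM by stock and volumes)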 | AID 898, 2007;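 active = inhibition of 50% or more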;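 note: controls were vehicle for no effect and minimum signal wells for full effect; inactives centre near -20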
Arbovirus anti repeat: second read-out of Arbovirus anti, no call of its own (marks repeat the call); inhibition, %; measured here: 10K subset replicate screen; many hits read low in the repeat;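 first of two repeat runs on a subset; 0% = infected and 100% = uninfected wells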
Numbers without * were called inactive. An excerpt; rates above refer to the full screens.

What do the screens show for `Cc1ccnc(NC(=O)c2cccc(NC(=O)c3ccccc3C)c2)c1`?
RecA splice inh: -1.0; Mtb bLac sens: 1.3

How did Cc1nnc(NC(=O)CC23CC4CC(CC(C4)C2)C3)s1 do in these assays?
RecA splice inh: 1.7; Mtb bLac sens: 1.9

What do the screens show for `CN1CCN(CC(O)COC(c2ccccc2)c2ccccc2)CC1` (stereo unspecified)?
Mtb growth: -1.9%; Arbovirus anti: 21.9; RecA splice inh: 1.7; Mtb bLac sens: -5.1

How did CCOc1ccc2ccc(OCC)c(/C=N/n3cnnc3)c2c1 do in these assays?
RecA splice inh: -46.7; Mtb bLac sens: 3.5

What do the screens show for `COc1ccc(C)cc1-n1nnnc1SCc1csc(C)n1`?
Mtb growth: -8.4%; Arbovirus anti: -10.0; RecA splice inh: 1.9; Mtb bLac sens: 3.5; YopH PTP inh: -46.4

How did CN(Cc1cnn(C)c1)C(=O)c1sc2cccc(Cl)c2c1Cl do in these assays?
Mtb growth: 4.8%; Arbovirus anti: 5.9; RecA splice inh: 1.4; Mtb bLac sens: -2.7; YopH PTP inh: -18.4

Results for COC(=O)CNc1cc(S(=O)(=O)N2CCCCC2)ccc1Oc1ccc(C(=O)OC)cc1 ?
RecA splice inh: 4.2; Mtb bLac sens: -5.7

Results for C=CCn1c(SC(C)CC)nc(O)cc1=O (stereo unspecified) ?
Mtb growth: 5.3%; Arbovirus anti: 4.2; RecA splice inh: 0.8; Mtb bLac sens: -13.0; YopH PTP inh: -52.7

What do the screens show for `Cc1ccc(C)c(OCCCCn2ccnc2)c1`?
Mtb growth: 7.0%; Arbovirus anti: 0.2; RecA splice inh: 3.4; Mtb bLac sens: 18.9; YopH PTP inh: -63.2

What do the screens show for `Cc1cccc(-c2nc(C#N)c(NC3CCCCC3)o2)c1`?
Mtb growth: 16.2%; Arbovirus anti: -7.9; RecA splice inh: -2.9; Mtb bLac sens: 0.0; YopH PTP inh: -53.5

Reprinted at random: four records from the list, in no set order.
How did CCOc1ccc2ccc(OCC)c(/C=N/n3cnnc3)c2c1 do in these assays?
RecA splice inh: -46.7; Mtb bLac sens: 3.5

What do the screens show for `Cc1ccc(C)c(OCCCCn2ccnc2)c1`?
Mtb growth: 7.0%; Arbovirus anti: 0.2; RecA splice inh: 3.4; Mtb bLac sens: 18.9; YopH PTP inh: -63.2

Results for C=CCn1c(SC(C)CC)nc(O)cc1=O (stereo unspecified) ?
Mtb growth: 5.3%; Arbovirus anti: 4.2; RecA splice inh: 0.8; Mtb bLac sens: -13.0; YopH PTP inh: -52.7

How did Cc1nnc(NC(=O)CC23CC4CC(CC(C4)C2)C3)s1 do in these assays?
RecA splice inh: 1.7; Mtb bLac sens: 1.9

Next part:
Results for Cc1cc([N+](=O)[O-])nn1Cc1ccc(C(=O)N/N=C/c2ccc(F)cc2)cc1 ?
Mtb growth: -2.7%; RecA splice inh: 1.7; Mtb bLac sens: -7.2

Results for COc1ccc(NC(=O)COc2cccc3c2CCN(Cc2cccnc2)C3=O)c(OC)c1 ?
RecA splice inh: 3.3; Mtb bLac sens: -12.2

What do the screens show for `O=S(=O)(c1ccc(C2CCCCC2)cc1)N1CCN(c2ncccn2)CC1`?
Mtb growth: -8.6%; Arbovirus anti: 5.7; RecA splice inh: -0.4; Mtb bLac sens: -1.9; YopH PTP inh: -18.6

How did CCOc1ccccc1NC(=O)CSc1ccc(-c2sc(C)nc2C)nn1 do in these assays?
RecA splice inh: 8.8; Mtb bLac sens: -13.1

What do the screens show for `CCOC(=O)N1CCC(NS(=O)(=O)c2ccc(C)c(Cl)c2)CC1`?
Mtb growth: -4.8%; RecA splice inh: -7.2; Mtb bLac sens: -11.6

Results for CCOc1ccc(NS(=O)(=O)c2cc(NC(=O)CCS(=O)(=O)c3ccc(C)cc3)ccc2OC)cc1 ?
Mtb growth: 5.5%; Arbovirus anti: -10.9; RecA splice inh: 1.1; Mtb bLac sens: -3.2; YopH PTP inh: -35.5

What do the screens show for `Cc1cc(C=O)c(C)n1-c1ccc(N2CCCCC2)c([N+](=O)[O-])c1`?
Mtb growth: 6.1%; Arbovirus anti: -31.3; RecA splice inh: 6.3; Mtb bLac sens: 10.9; YopH PTP inh: -33.5

How did Cc1cc(C(=S)N2CCOCC2)c(C)n1-c1ccc(F)cc1 do in these assays?
Mtb growth: -3.0%; Arbovirus anti: 2.6; RecA splice inh: 4.6; Mtb bLac sens: -3.2

How did O=C(CS(=O)(=O)c1c[nH]c2ccccc12)N1CCCc2ccccc21 do in these assays?
Mtb growth: 8.7%; Arbovirus anti: 6.1; RecA splice inh: 0.6; Mtb bLac sens: -7.3; YopH PTP inh: -40.4

How did CN1C(=O)C(=Cc2cn(CC#N)c3ccccc23)C(=O)N(C)C1=O do in these assays?
RecA splice inh: -0.3; Mtb bLac sens: 7.5

Results for O=C(COC(=O)CNC(=O)c1ccc(Cl)cc1Cl)NC(=O)NC1CCCCC1 ?
RecA splice inh: 0.0; Mtb bLac sens: -4.0

How did O=C(C1CC1)N1CCc2cc(Br)cc(S(=O)(=O)NCc3ccccn3)c21 do in these assays?
Mtb growth: -12.2%; Arbovirus anti: 6.3; RecA splice inh: -0.4; Mtb bLac sens: 3.8; YopH PTP inh: -25.2; Arbovirus anti repeat: 4.0

Results for O=S(=O)(c1ccccc1)N1CCN(CC(O)COc2ccc3c(c2)CCC3)CC1 (stereo unspecified) ?
Mtb growth: 3.8%; Arbovirus anti: -4.0; RecA splice inh: 7.0; Mtb bLac sens: 5.6; YopH PTP inh: -21.0

What do the screens show for `CCOc1ccc(C2CC(c3c(O)n(C)c(=O)n(C)c3=O)=NN2)cc1` (stereo unspecified)?
Mtb growth: -10.8%; RecA splice inh: 0.0; Mtb bLac sens: -1.1

Results for CC(C)N(C(=O)COC(=O)c1ccc([N+](=O)[O-])cc1)c1ccccc1 ?
Mtb growth: 67.4%; Arbovirus anti: 4.9; RecA splice inh: -3.3; Mtb bLac sens: 38.0

Results for CC(C)N=c1c([N+](=O)[O-])nn(C)n1O ?
Mtb growth: -0.7%; Arbovirus anti: 1.5; RecA splice inh: -0.2; Mtb bLac sens: -3.5

What do the screens show for `CC1CCCC(NC(=O)CCCn2c(=S)[nH]c3ccccc3c2=O)C1C` (stereo unspecified)?
Mtb growth: 5.1%; Arbovirus anti: -3.1; RecA splice inh: 0.3; Mtb bLac sens: -1.6

How did c1ccc(CCNc2ccnc3cc4ccccc4cc23)cc1 do in these assays?
Mtb growth: 1.5µM*; Arbovirus anti: -32.2; RecA splice inh: inactive

How did COc1ccccc1/C=C(/C(=O)OCC(=O)NCc1ccccc1)c1ccccc1 do in these assays?
Mtb growth: 4.0%; Arbovirus anti: 6.1; RecA splice inh: 0.4; Mtb bLac sens: -5.7; YopH PTP inh: -32.2

Results for CN(CC(=O)Nc1ccccc1Cl)C(=O)CSc1nncs1 ?
RecA splice inh: 0.2; Mtb bLac sens: -12.7

How did CCn1ncc(/C=N\NC(=O)c2ccc3c(c2)c(C)c(C)n3Cc2ccccc2)c1C do in these assays?
Mtb growth: -8.9%; Arbovirus anti: -6.3; RecA splice inh: 24.6; Mtb bLac sens: 65.7; YopH PTP inh: -6.1

How did COC(=O)CSc1cc(C)nc(NC(C)=O)n1 do in these assays?
Mtb growth: -3.8%; Arbovirus anti: 4.3; RecA splice inh: 4.2; Mtb bLac sens: 1.7; YopH PTP inh: -16.7

Results for CC1CN(CCCSc2ccc(Cl)cc2)CC(C)O1 (stereo unspecified) ?
Mtb growth: -9.0%; Arbovirus anti: -2.4; RecA splice inh: 0.4; Mtb bLac sens: 6.2

How did Cc1ccc2oc(=O)cc(CN3CC(C)OC(C)C3)c2c1 (stereo unspecified) do in these assays?
RecA splice inh: -5.8; Mtb bLac sens: 4.0

How did CNC(=O)CN(c1cc(OCCOC)c(Cl)cc1Cl)S(=O)(=O)c1ccccc1 do in these assays?
Mtb growth: -2.8%; Arbovirus anti: 23.2; RecA splice inh: -0.8; Mtb bLac sens: -3.7

What do the screens show for `Cc1cc(NC(=O)CSc2nc(C(C)C)nc3sc4c(c23)CCC(C)C4)no1` (stereo unspecified)?
Mtb growth: -4.5%; Arbovirus anti: -14.4; RecA splice inh: 1.1; Mtb bLac sens: 4.1; YopH PTP inh: -16.9

Results for CC(C)C(C(=O)Nc1ccccc1F)N1C(=O)c2ccccc2C1=O (stereo unspecified) ?
RecA splice inh: 2.3; Mtb bLac sens: 0.4

Results for CC[C@@]12C(=O)N(c3ccccc3)C(=O)N1[C@H](c1cccc(C)c1)[C@@H]1C(=O)N(Cc3ccccc3)C(=O)[C@@H]12 ?
RecA splice inh: 0.7; Mtb bLac sens: -0.8

What do the screens show for `C#CCOc1cc(C2C3=C(COC3=O)Nc3cc4c(cc32)OCO4)ccc1OC` (stereo unspecified)?
Mtb growth: -2.4%; Arbovirus anti: -7.3; RecA splice inh: 0.8; Mtb bLac sens: -8.5

Results for COc1ccc(C(=O)c2nccc3ccccc23)cc1 ?
Mtb growth: 0.5%; Arbovirus anti: -3.8; RecA splice inh: 2.7; Mtb bLac sens: 5.5

How did CC(=O)N1CCC(C(=O)Nc2ccc3c(c2)CCC3)CC1 do in these assays?
RecA splice inh: -0.6; Mtb bLac sens: -11.6

What do the screens show for `CN(C)c1ccccc1C(=O)N1CCC(n2nccc2NC(=O)C2CC2)CC1`?
RecA splice inh: 3.6; Mtb bLac sens: -1.2

How did CCOC(=O)C1=C(C)NC(=O)NC1c1cccc(OC)c1OCc1ccccc1Cl (stereo unspecified) do in these assays?
Mtb growth: -5.8%; Arbovirus anti: -11.9; Mtb bLac sens: 7.7; YopH PTP inh: 3.0

How did Cc1nn(C)c(C(=O)NNC(=S)Nc2ccc(F)cc2)c1[N+](=O)[O-] do in these assays?
Mtb growth: 0.4%; Arbovirus anti: 1.1; RecA splice inh: 1.9; Mtb bLac sens: 7.7; YopH PTP inh: -9.4

Results for CCN(CC)S(=O)(=O)c1ccc(-c2nnc(SCc3nnc(-c4ccc(C)cc4)o3)o2)cc1 ?
Mtb growth: 0.1%; Arbovirus anti: -0.3; RecA splice inh: 0.7; Mtb bLac sens: -2.5; YopH PTP inh: -19.9

How did Cc1ccc(C)c(NS(=O)(=O)c2ccc3c(c2)Cc2cc(S(=O)(=O)Nc4cc(C)ccc4C)ccc2-3)c1 do in these assays?
Mtb growth: -0.1%; Arbovirus anti: -11.3; Mtb bLac sens: 1.5; YopH PTP inh: -23.4

How did O=C(c1ccccn1)c1ccc2ccccc2n1 do in these assays?
Mtb growth: 2.5%; RecA splice inh: 0.9; Mtb bLac sens: -6.1

What do the screens show for `Cc1ccc(-c2csc(NC(=O)CN3C(=O)CCC3=O)n2)cc1`?
Mtb growth: 1.9%; Arbovirus anti: 0.8; RecA splice inh: 0.6; Mtb bLac sens: 14.2

Results for O=C(NCc1cccs1)C1CC(c2ccc(Cl)cc2)=NO1 (stereo unspecified) ?
Mtb growth: 2.3%; Arbovirus anti: -15.2; RecA splice inh: -4.4; Mtb bLac sens: 0.3

How did Cc1nnc(N2CCN(c3ccccc3)CC2)[nH]c1=O do in these assays?
Mtb growth: -3.3%; Arbovirus anti: -5.9; RecA splice inh: -1.8; Mtb bLac sens: 5.1; YopH PTP inh: -17.4

Results for O=C(Nc1ccc2c(c1)OCCO2)C1CCCN(S(=O)(=O)c2cnc[nH]2)C1 (stereo unspecified) ?
Mtb growth: -12.5%; Arbovirus anti: 2.3; RecA splice inh: 0.3; Mtb bLac sens: -8.7; YopH PTP inh: -14.2

How did CCN(C(=S)Nc1cccc(C)c1)c1ccccc1 do in these assays?
Mtb growth: 0.5%; Arbovirus anti: -8.2; RecA splice inh: 2.7; Mtb bLac sens: -6.0; YopH PTP inh: -7.2

What do the screens show for `O=C(Cn1cc([N+](=O)[O-])cn1)N1CCc2ccccc2C1`?
Mtb growth: -2.0%; Arbovirus anti: -0.5; RecA splice inh: 1.5; Mtb bLac sens: -0.5

How did COCCN1C(=O)c2cc(C(=O)Nc3cccc(F)c3)ccc2C1Nc1cccc(F)c1 (stereo unspecified) do in these assays?
Mtb growth: 10.4%; Arbovirus anti: -2.5; RecA splice inh: 2.5; Mtb bLac sens: -6.3; YopH PTP inh: -26.3

How did CSc1sc(-c2ccnc(=S)[nH]2)c(-c2ccccc2)c1C#N do in these assays?
Mtb growth: -4.2%; RecA splice inh: 1.2; Mtb bLac sens: -8.2

What do the screens show for `O=c1[nH]c2ccccc2nc1NCCN1CCOCC1`?
Mtb growth: -3.5%; Arbovirus anti: 2.9; RecA splice inh: -15.7; Mtb bLac sens: 4.0; YopH PTP inh: -6.7
